ugtP null kill = compounds lethal to S. aureus RN4220 ugtP deletion mutant. 0.54% of 330,000 active. AID 1259309. growth inhibition, % (no concentration beside the values). OD600 growth, 16 h; some inactives read as strong as hits;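 active = z-score under -3 and OD600 up to 0.15 on both plates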;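 note: plate controls were untreated wells for no effect and antibiotic for full effect; wells of about 80 µL received 100 nL stock; the first replicate is given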
PrP UTR inh = suppresses PrP 5' UTR mRNA reporter expression. cell-based PrP 5' UTR mRNA reporter, plate reader. 0.35% of 340,000 active. inhibition, % (concentration not given with the values). AID 488862;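 active = every replicate at 50% or more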;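 note: 0 = median of the neutral control wells; tested in H4 reporter cells; numbers are from one replicate; inactives centre near -14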
Sa RN4220 lethal = S. aureus RN4220 growth inhibition. 0.33% of 330,000 active. inhibition, % (no concentration beside the values). OD600, 16 h;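 active = z-score of -3 or lower and OD600 up to 0.18 on both plates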;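 note: plate controls were untreated cells for no effect and reference antibiotic for full effect; stock transfer was 100 nL into about 80 µL; one replicate is shown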
Mtb hypoxia inh = inhibitors of hypoxia-regulated fluorescent reporter in Mycobacterium tuberculosis | AID 1159583 | M. tuberculosis hypoxia-regulated fluorescent reporter, fluorescence | fluorescence inhibition, % (concentration not given with the values) | 0.1% of 300,000 active;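 active = 35 to 45% if threefold the growth effect, above 45% if 1.5-fold the growth effect; inactive = the rest, general growth blockers included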;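 note: wells of about 50 µL received 100 nL stock; 0% = vehicle wells and 100% = reference inhibitor wells; whole bacteria with a GFP reporter of the hypoxia response; strong numbers were not always called active; many hits fall short of the cut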
BJeLR viability = kills HRASV12-expressing BJeLR cells; BJeLR (HRASV12) viability, CellTiter-Glo ATP luminescence, 48 h; reference of the scale not given here; inhibition, % (no concentration beside the values); 0.17% of 300,000 active;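 active = replicate mean above 50%; inconclusive = above 50% but judged a plate artefact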;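 note: 50 nL library stock added to about 25 µL; numbers are from one replicate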
Autofluor counter = flagged as autofluorescent in microsphere protease counterscreen. fluorescence intensity (concentration not given with the values). compound autofluorescence counterscreen, microsphere flow cytometry; hits give high values. 3.1% of 360,000 active;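 active = at least 3 SD above the mean of all compounds, about 16000 in these data; inconclusive = too few beads counted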;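 note: 100 nL of 1 mM stock went into each well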
Mtb hypoxia inh growth = recorded beside Mtb hypoxia inh, whose call it bears; growth inhibition, %; measured here: M. tuberculosis growth (absorbance);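 0% = vehicle and 100% = reference antibiotic; read after six days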
Numbers without * were called inactive; ? = inconclusive; / = not tested or not shown.

SMILES	ugtP null kill	PrP UTR inh	Sa RN4220 lethal	Mtb hypoxia inh	Mtb hypoxia inh growth	BJeLR viability	Autofluor counter
O=C(NCCF)C1Nc2ccc(OC(F)(F)F)cc2C2C=CCC12 (configuration not stated)	-3	-6	2.4	-8	-21	0	3004
CC(C)(C)OC(=O)N1CCC(c2cc(=O)n3[nH]cc(C(=O)NC4CCCC4)c3n2)CC1	-12	-4	3.6	8	10	8	4743
Cn1c(CC(=O)Nc2ccccc2Cl)nnc1SCC(=O)NC1=NCCS1	7	2	0.3	2	-5	-8	6317
COc1cc(OC)cc(-c2nc3ccccc3s2)c1	27	-99	5.4	6	-2	-2	23472*
CSc1nc(N)nc2c1ncn2CC(=O)N1CCN(c2ccccn2)CC1	5	-12	3.1	-4	-4	/	2827
O=C(NCc1ccc(F)cc1)C1CCN(c2cnccn2)CC1	2	-11	0.3	0	-1	-2	4696
CCOC(=O)C1CCN(S(=O)(=O)c2cc(Br)cc3c2N(C(=O)C2CC2)CC3)CC1	11	-30	13	5	-5	-1	3210
O=C(CCCc1ccccc1)NCc1cn2ccsc2n1	-5	-10	-7.2	1	12	-10	5831
CCOC(=O)N1CCN(C(=O)CSc2ccc(-c3ccncc3)nn2)CC1	2	-15	1.1	2	-2	6	4563
Cc1ccc(NCc2nnc(SCC(=O)Nc3ncc(C)s3)n2Cc2ccco2)c(C)c1	26	-9	3.2	-3	-2	9	6399
Cc1c([N+](=O)[O-])c(N)nn1C	1	-11	0.5	6	-7	-2	5251
Oc1ccc(C=NNC(=S)NCCN2CCOCC2)c(O)c1	13	/	4.0	7	16	/	/
Cc1ccc(C)c(S(=O)(=O)n2cnc3ccccc32)c1	3	7	2.2	7	0	-6	4294
CCOC(=O)c1cnc(-c2ccccc2)nc1Oc1ccc(Cl)cc1	46	-23	8.8	/	/	0	2364
CC(C)C(=O)NCC(c1ccc2c(c1)OCO2)N1CCOCC1 (configuration not stated)	7	-13	3.8	0	-6	-5	5833
CC1(C)CC(=O)C(C=NCCN2CCN(C(=S)NC3CCCCC3)CC2)=C(O)C1	5	-20	1.5	5	3	-8	6909
O=C(Cn1cnc2cc([N+](=O)[O-])ccc2c1=O)Nc1cccc2ccccc12	5	-12	3.1	6	5	-19	4299
Cc1ccc(NC2=NC(C(=O)Nc3ccc(C)c(C)c3)CC(=O)N2)cc1 (configuration not stated)	4	-19	3.3	4	4	18	4019
Nc1nc(N2CCN(C/C=C/c3ccccc3)CC2)nc2ccccc12	5	2	0.5	/	/	/	4955
CC(=NNC(=O)c1cccc(S(=O)(=O)N2CCOCC2)c1)c1ccc(OC(F)F)cc1	-1	/	1.0	4	-3	/	/
Cn1c(=O)[nH]c(=O)c2c1[nH]c(=S)n2Cc1ccccc1	9	-27	1.5	2	8	2	5203
O=C(CSc1nc2ccccc2nc1N1CCCCC1)Nc1ccc(F)cc1	1	-15	-1.6	-5	-7	2	6305
CC[C@]1(C(=O)OC)[C@H]2C(=O)N(C)C(=O)[C@H]2[C@H]2CN=C(SCC3CC3)N21	5	-13	3.7	6	7	/	3627
COc1cc(/C=N/Nc2nc(N3CCCC3)nc(N3CCCC3)n2)ccc1OCc1ccccc1F	/	-35	/	/	/	-12	4031
COC(=O)c1cncc(C)c1	-1	-7	0.0	3	5	4	3362
COc1ccc(NC(=O)C2=NN(C3CCS(=O)(=O)C3)C(=O)CC2)cn1 (configuration not stated)	1	-15	1.0	0	12	-3	4107
N#CCCn1cc(C(=O)Nc2ccccc2Br)c(-c2cc3ccccc3o2)n1	-10	-18	0.4	4	7	-5	9708
COc1ccc(OC)c(NC(=O)CSc2nn3c(=O)c(C)nnc3s2)c1	0	-9	0.9	10	11	6	5519
CN(C)CC#CCC(O)(c1ccccc1)c1ccccc1	-2	-24	-0.5	3	-3	6	4541
COc1ccc(C2=Nn3c(nnc3-c3cccnc3)SC2)cc1OC	-3	-9	2.9	-4	8	-4	6414
CC(C)CNC(=O)C1CCN(c2ccc(S(=O)(=O)N3CCOCC3)cc2Cl)CC1	8	/	5.6	7	1	-7	8028
CSc1ccccc1C(=O)NCc1ccc(C)cc1	10	-11	-1.1	9	8	0	3369
Cc1ccc2nc(C3CCN(S(=O)(=O)c4ccc5ccccc5c4)CC3)[nH]c2c1	-16	-36	-10	8	15	7	4041
Nc1nc(SCc2nc(-c3ccccc3)no2)[nH]c(=O)c1-c1ccccc1	3	3	2.4	-4	-6	0	8219
COc1ccccc1CN1CCCCC1C(=O)O (configuration not stated)	18	-11	7.1	-2	9	8	4549
COc1cc(/C=N/NC(=O)c2ccc([N+](=O)[O-])cc2Cl)cc(Br)c1O	/	-1	/	/	/	-34	3213
O=C(CSc1nc(-c2ccco2)cc(C(F)(F)F)n1)N1CCN(Cc2ccccc2)CC1	3	-3	0.4	6	5	4	5939
Cc1ccc(-c2cc(C(=O)N3CCN(c4ccccc4O)CC3)c3ccccc3n2)cc1	-4	-46	0.1	13	3	9	4189
COc1cc(/C=C(/C#N)C(=O)Nc2cc(C(F)(F)F)ccc2Cl)ccc1OCC(=O)Nc1cccc(C(F)(F)F)c1	0	-3	1.3	7	1	/	3143
COCCNC(=O)CN(C(=O)CCC(=O)Nc1ccccn1)c1ccc(OC)cc1	3	-13	2.4	1	9	-11	3884

Taken from above:
Entry of Nc1nc(SCc2nc(-c3ccccc3)no2)[nH]c(=O)c1-c1ccccc1 in ugtP null kill: 3
Entry of CSc1ccccc1C(=O)NCc1ccc(C)cc1 in Mtb hypoxia inh growth: 8
Entry of COc1ccc(OC)c(NC(=O)CSc2nn3c(=O)c(C)nnc3s2)c1 in PrP UTR inh: -9
Entry of COc1cc(/C=N/NC(=O)c2ccc([N+](=O)[O-])cc2Cl)cc(Br)c1O in PrP UTR inh: -1
Entry of COc1cc(/C=C(/C#N)C(=O)Nc2cc(C(F)(F)F)ccc2Cl)ccc1OCC(=O)Nc1cccc(C(F)(F)F)c1 in Mtb hypoxia inh growth: 1

2 neighbouring compounds out of the list so far, for reference:
SMILES	ugtP null kill	PrP UTR inh	Sa RN4220 lethal	Mtb hypoxia inh	Mtb hypoxia inh growth	BJeLR viability	Autofluor counter
Cn1c(=O)[nH]c(=O)c2c1[nH]c(=S)n2Cc1ccccc1	9	-27	1.5	2	8	2	5203
O=C(CSc1nc2ccccc2nc1N1CCCCC1)Nc1ccc(F)cc1	1	-15	-1.6	-5	-7	2	6305

(cont.)
SMILES	ugtP null kill	PrP UTR inh	Sa RN4220 lethal	Mtb hypoxia inh	Mtb hypoxia inh growth	BJeLR viability	Autofluor counter
Cc1ccccc1N(C=O)c1ccccc1C	0	-13	2.9	15	7	/	3766
Nc1scn[n+]1Cc1cccc2cccnc12	7	-14	4.2	5	4	-2	4587
Cn1c(Cn2c(=O)sc3ccccc32)nnc1SCC(=O)NC1CCCC1	4	-18	0.5	/	/	-2	4444
COC(=O)C1=C(C)n2nnnc2NC1c1ccc(Cl)cc1 (configuration not stated)	-3	-4	-0.7	/	/	3	2206
Cc1cc(C)c(NC(=S)NC(=O)c2ccc(-c3ccccc3)cc2)c(C)c1	6	-5	2.9	7	7	-6	2439
CCOc1cc(C(=O)N2CCN=C2SC)cc(OCC)c1OCC	4	-16	-0.2	/	/	19	3021
COc1cccc(O)c1CN1CCCC(C(=O)c2ccccc2SC)C1 (configuration not stated)	5	-7	2.4	1	13	4	4395
CC/C(=N\NC(=O)c1ccccc1O)c1c(O)n(Cc2ccccc2)c(=O)[nH]c1=O	-17	-26	4.9	9	7	-4	5154
Cn1cccc1-c1nc2ccccc2[nH]1	5	-36	7.0	7	7	4	3672
CCn1cc(CNC(=S)Nc2cccc(Cl)c2C)cn1	-19	6	-6.7	-3	4	-1	3419
COc1ccc(-c2c/c(=N\c3nc(-c4ccccc4)c(C)s3)c3ccccc3o2)cc1O	/	-29	/	/	/	33	2613
CCOC(=O)c1cc(-c2ccco2)nc2c1c(C)nn2-c1cccc(Cl)c1	-5	-22	-4.1	7	10	-3	5144
N#Cc1ccsc1NC(=O)CN1CCN(S(=O)(=O)c2ccccc2C(F)(F)F)CC1	-2	-21	7.0	7	11	-1	2119
Cc1cccc(-n2c(=S)[nH]c3nc4c(cc3c2=O)COC(C)(C)C4)c1	9	/	1.5	-11	9	10	/
Cc1ccc(NC(=O)CSc2ncccn2)cc1S(=O)(=O)N1CCOCC1	2	-15	2.4	6	4	/	3726
CC(NC(=O)CN1C(=O)NC2(CCCC2)C1=O)c1ccc(Cl)cc1Cl (configuration not stated)	0	-11	0.3	7	0	/	3177
COc1cc(C2C(C#N)=C(N)Oc3cc(C)n(CCN4CCOCC4)c(=O)c32)cc(OC)c1OC (configuration not stated)	-1	0	1.7	8	0	3	3156
CC(CC(C)(C)C1CCCCC1)=NNC(N)=S	3	/	7.7	/	/	/	/
COc1ccc(-n2nc(C(=O)NCc3ccco3)c3ccccc3c2=O)cc1	0	-9	4.1	0	2	3	19127*
O=C(Nc1c(Cl)cc(Cl)cc1C(=O)NCC1CCCO1)c1ccco1 (configuration not stated)	2	-20	3.4	14	7	2	3914

Some of these compounds in order of SMILES length, descending:
SMILES	ugtP null kill	PrP UTR inh	Sa RN4220 lethal	Mtb hypoxia inh	Mtb hypoxia inh growth	BJeLR viability	Autofluor counter
Cc1cc(C)c(NC(=S)NC(=O)c2ccc(-c3ccccc3)cc2)c(C)c1	6	-5	2.9	7	7	-6	2439
COc1ccc(-n2nc(C(=O)NCc3ccco3)c3ccccc3c2=O)cc1	0	-9	4.1	0	2	3	19127*
Nc1scn[n+]1Cc1cccc2cccnc12	7	-14	4.2	5	4	-2	4587

Continued.
SMILES	ugtP null kill	PrP UTR inh	Sa RN4220 lethal	Mtb hypoxia inh	Mtb hypoxia inh growth	BJeLR viability	Autofluor counter
Cc1cccc(/C=N/NC(=O)CN2CCCCCCC2)c1	/	-14	/	/	/	-5	2022
NC(=O)c1c(NC(=O)C2c3ccccc3Oc3ccccc32)sc2c1CCCCC2	-5	-45	-5.7	6	2	0	7394
COc1ccccc1C(=O)NC(CCSC)C(=O)NCCCSc1ccccc1 (configuration not stated)	-4	-21	2.3	8	4	15	6107
C=CCOC(=O)C1=C(C)N=c2s/c(=C3\C(=O)N(CC(=O)O)c4ccccc43)c(=O)n2C1c1ccc(OC)cc1 (configuration not stated)	/	-1	/	/	/	-7	?
COc1cc2c(cc1NC(=O)COC(=O)[C@@H](NC(=O)c1ccccc1F)C(C)C)oc1ccccc12	-11	-33	-5.4	2	7	1	2473
O=C(N1CCOCC1)N1CCc2ccccc21	-3	-27	2.1	-8	1	-3	3774
CNS(=O)(=O)c1cccc(C(=O)OCC(=O)Nc2ccc(OC)cc2[N+](=O)[O-])c1	1	-48	6.8	3	9	1	4687
C=C(C)Cn1c(N(CCO)Cc2ccccc2)nc2c1c(=O)[nH]c(=O)n2C	2	-19	-0.7	/	/	-6	5424
COc1ccc(C2CC2/C(C)=N/OC(=O)c2ccc(F)cc2)cc1 (configuration not stated)	/	-19	/	/	/	0	5057
CCC(C)OC(=O)c1cc(C)nc2c(Br)cc(Br)cc12 (configuration not stated)	-3	-26	-2.7	6	-2	-5	3128
COc1cc(/C=N/n2c(C)n[nH]c2=S)ccc1OCc1ccccc1	/	-18	/	/	/	19	2085
COCCCNC(=S)N1CCN(c2nc(-c3ccccc3)cs2)CC1	27	-20	-9.6	16	9	9	3390
O=C(NCCCN1CCN(Cc2ccccc2Cl)CC1)Nc1ccccc1	9	-22	1.4	/	/	-13	4211
O=C(CCc1nc2ccccc2s1)OCC(=O)N1CCN(C(=O)c2ccco2)CC1	12	-11	2.6	2	-1	-3	3631
O=C(OCCN=C1NS(=O)(=O)c2ccccc21)c1ccccc1	26	0	-0.5	5	-3	10	6341
O=C(Nc1ccc([N+](=O)[O-])cc1)/C(=C/c1cccc([N+](=O)[O-])c1)NC(=O)C1CCCCC1	-14	-13	-9.1	15	5	0	9905
Cc1cccc2cc(CN(CCN(C)C)C(=S)NCc3ccco3)c(=O)[nH]c12	2	-18	-0.1	-4	6	10	2977
CCCCN1C(=O)c2ccc(C(=O)Nc3ccc(S(=O)(=O)N(C)C)cc3)cc2C1=O	14	-7	6.8	9	11	-9	2503
Cc1cccc(N=C2N=C(N)c3ccccc32)c1	-3	-39	3.6	15	2	9	6073
CCOc1ccc2nc(Nc3nc4ccc(NC(C)=O)cc4s3)sc2c1	/	-22	/	/	/	1	2381
C=CCNc1nc(-c2sc(NC(=O)CC)nc2C)cs1	4	-15	2.2	/	/	10	3812
CCOC(=O)C1(CC2CCCCO2)CCN(C(=O)Nc2ccccc2CC)CC1 (configuration not stated)	10	-11	4.0	14	5	-13	2704
